AID504770: growth inhibition of E. coli YBA685, primary screen, V. cholerae RctB inhibitors | E. coli YBA685 rctB-dependent plasmid, OD600 growth, 3 h; stronger effect = lower value | z-score (test concentration not listed) | actives 0.27% (n = 130,000) | AID 504770, 2011;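 active means z-score under -2 on both plates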;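 further: wells of about 30 µL received 100 nL stock; score is relative to mean and SD of the test wells; the first replicate is given; strong numbers were not always called active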
Ba CapD inh: Bacillus anthracis CapD inhibitors, primary screen, biochemical, fluorescence intensity; actives 0.23% (n = 140,000); z-score (no concentration beside the values); purified CapD enzyme, fluorescence intensity read-out; stronger effect = lower value; some hits fall short of the stated cut; CapD gamma-glutamyltranspeptidase (Bacillus anthracis Ames Ancestor);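 active means z-score under -4 in either of two replicates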;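 further: stock transfer was 100 nL into about 40 µL; score is relative to mean and spread of the plate; one replicate is shown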
Starred values were filed as active, the others as inactive; nt = no result given. A portion of the library. The share of hits here may be higher or lower than overall.

SMILES	AID504770	Ba CapD inh
CC1CCc2cc(F)ccc2N1S(=O)(=O)c1c(N)n(C)c(=O)n(C)c1=O (centres undefined)	0.65	nt
O=C(c1ccccc1)N1CCC(c2nc3c(nnn3Cc3ccccc3)c(=O)[nH]2)CC1	-0.35	nt
CCOC(=O)N1CCN(C(=O)CNC(=S)N(Cc2cccs2)C2CCCCC2)CC1	-0.6	0.865
COC(=O)c1cc(OC)c(OC)cc1N1C(=O)CCC1=O	0.85	-0.01
COc1cc(C2NC(=O)N(C)C(C)=C2C(=O)OC2CCCC2)cc(Br)c1O (centres undefined)	nt	0.055
CNC(=S)N(Cc1ccco1)Cc1cc2cc(C)ccc2n2nnnc12	0.05	nt
O=C(NCC1CCN(Cc2ccc(Cl)cc2)CC1)c1[nH]nc2c1COc1ccccc1-2	0.4	0.79
CCOC(=O)N1CCC(NC(=O)C2CCCN(Cc3nc(-c4cccc(C)c4)oc3C)C2)CC1 (centres undefined)	-2.25	1.2
Oc1oc(C=Nc2ccccc2)c2ccccc12	-0.1	-0.365
Cn1c(=O)c2c(nc(N3CCN(C(=O)c4ccco4)CC3)n2CCSc2ncccn2)n(C)c1=O	1.8	nt
CC(=O)N1N=C(c2c(-c3ccccc3)c3cc(Cl)ccc3[nH]c2=O)CC1c1ccccc1F (centres undefined)	nt	0.29
CCc1ccccc1N(CC)C(=O)Cn1ncc2c1-c1ccccc1OC2	0.5	0.385
O=C1Nc2cc(C(=O)N3CCN(C(=O)c4ccco4)CC3)ccc2Sc2ccccc21	0.1	-0.24
Cc1cccc(C(=O)N2CCN(c3ccc(N4CCOCC4)nn3)CC2)c1	-0.85	4.03
Cc1ccc(OCC(=O)N2CCC(C)CC2)cc1C	-0.25	nt
O=C(CCc1ccco1)Nc1cccc(-c2nc3ccccc3[nH]2)c1	-0.25	nt
CCN(CC)C(=O)c1cc(Cl)cn(Cc2c(Cl)cccc2Cl)c1=O	nt	3.08
Nc1ccc2c(c1)OC1(O)c3ccccc3C(=O)C21O (centres undefined)	-0.5	nt
COC(=O)c1sc(N)c(C(=O)OC)c1CSc1nnc(Cc2ccccc2)n1C	-0.1	nt
C=CCN1CCN(C(c2ccc(C)cc2)c2nnnn2C2CCCC2)CC1 (centres undefined)	2.2	nt
COc1ccc(Cl)cc1C(=O)CCC(=O)O	-0.25	nt
NC(=O)c1sc(-c2cccs2)cc1N	-1.25	7.61
C/C(=N\NC(=O)c1cc2ccccc2cc1O)c1cccnc1	0.6	0.52
Cc1ccc2c(CN(C)c3ccccc3)cc(=O)oc2c1	1.55	-0.005
CC(=O)N[C@H]1[C@H](Oc2cccc3ccccc23)O[C@H](COC(C)=O)[C@@H](OC(C)=O)[C@@H]1OC(C)=O	nt	-0.185
Cc1cccc(NC(=O)C(C)C)c1	0	0.8
CC1CC(C)CN(C(=O)COC(=O)Cc2coc3cc(O)ccc23)C1 (centres undefined)	-1	nt
CCN(CC)c1ccc(NC(=O)C2CCCCC2)c(N(CC)CC)n1	-0.2	5.86
CCOc1ccc(C/C(O)=C2\C(=N)CC(C)(C)CC2=O)cc1OCC	-1.05	-0.5
Nc1ccc(-c2cc(N)n[nH]2)cc1	-0.2	0.195
Cc1sc2nc(-c3ccc(N4C(=O)CCC4=O)cc3)oc(=O)c2c1C	nt	0.03
COC(=O)N/N=C\c1cccc(OC(=O)c2cccs2)c1	0.75	-0.25
CCN1CCCC1CNC(=O)CCc1nc(-c2ccc(C)cc2)no1 (centres undefined)	0.15	-1.15
N#Cc1cnc(SCC(=O)Nc2cc(Cl)ccc2O)nc1N	0.3	nt
CCOC(=O)C1=C(C)N=c2s/c(=C\c3ccc(OC)cc3OC)c(=O)n2C1c1ccc(N(C)C)cc1 (centres undefined)	nt	-0.16
FC(F)(F)c1cccc(Nc2nc(Cl)nc(NCc3ccco3)n2)c1	nt	0.145
O=C(NC(CSCc1ccccc1)C(=O)Nc1ccc2ccccc2c1)OCCc1ccc(Br)cc1 (centres undefined)	nt	0.07
OC1(c2cccnc2)CCNCC1	0.25	nt
CN(C)C(=O)Cc1c(Cl)sc2ccccc12	0.9	-0.04
CCOC(=O)c1ccc(N2C(=O)C(=O)/C(=C(/O)c3ccc(OC)cc3)C2c2ccccc2)cc1 (centres undefined)	nt	-0.18
CC(C)NCC(O)c1ccc(NS(C)(=O)=O)cc1 (centres undefined)	nt	2.48
COc1ccc(NC(=O)CSc2nc(O)cc(=O)n2-c2ccccc2OC)cc1	-0.15	-0.345
CC(=O)OC(OC(C)=O)C12C=CC(O1)C1C(=O)N(c3ccc(Cl)c(C(=O)O)c3)C(=O)C12 (centres undefined)	nt	-0.125
O=C(COC(=O)c1ccccc1F)NC(c1ccccc1)c1ccccc1	-1	0.45
Cc1ccc(NC(=O)CCc2c(C)nn3cnnc3c2C)cc1	0	0.34
N#CC(=C1CCCC1)c1nc(-c2cc3ccccc3oc2=O)cs1	0.55	-0.495
Cc1cc(C(=O)OCC(N)=O)c2ccccc2n1	0.7	5.69
COc1cc(OC)cc(C(=O)N2CCN(C(=O)Cc3ccc(F)c(F)c3)CC2)c1	nt	-0.805
COc1ccc(N2CCN(S(=O)(=O)c3cc(C(=O)Nc4ccc(Br)cc4)ccc3F)CC2)cc1	nt	0.38
COC(=O)c1c(C(=O)OC)c(-c2cccc(C(F)(F)F)c2)n2c1CCC2	nt	0.585

New compounds follow:
SMILES	AID504770	Ba CapD inh
CC(=O)C1=NN(c2ccccc2)C2(S1)SC(c1ccc(Br)cc1)(c1ccc(Br)cc1)c1ccccc12 (centres undefined)	nt	0.06
COC(=O)COc1ccc2c(C)c(C)c(=O)oc2c1	0.15	0.58
COc1ccccc1CC(=O)N1CCN(c2cccc3[nH]ccc23)CC1	-0.9	1.39
CCCS(=O)(=O)c1cc2cc(Cl)ccc2oc1=O	-0.6	5.98
COc1ccc(C(=O)OCCN(C2=NS(=O)(=O)c3ccccc32)c2ccccc2)c(OC)c1	nt	0.54
COc1ccc(N/N=C(\C#N)C(=N)N2CCCCC2)cc1	0.35	-2.46
CC(CN1CCOCC1)OC(=O)C1COc2ccccc2O1 (centres undefined)	0.2	0.105
O=C(c1ccccc1)c1cccnc1	1.3	0.32
CCc1cccc(CC)c1N1C(=O)C=CC1=O	nt	0.16
CCN(c1ccccc1)S(=O)(=O)c1ccc(O)cc1	-1.05	-0.095

Six of the compounds above, comma-delimited:
compound,AID504770,Ba CapD inh
CC(CN1CCOCC1)OC(=O)C1COc2ccccc2O1 (centres undefined),0.2,0.105
COC(=O)COc1ccc2c(C)c(C)c(=O)oc2c1,0.15,0.58
CCc1cccc(CC)c1N1C(=O)C=CC1=O,nt,0.16
COc1ccc(C(=O)OCCN(C2=NS(=O)(=O)c3ccccc32)c2ccccc2)c(OC)c1,nt,0.54
COc1ccccc1CC(=O)N1CCN(c2cccc3[nH]ccc23)CC1,-0.9,1.39
COc1ccc(N/N=C(\C#N)C(=N)N2CCCCC2)cc1,0.35,-2.46

(next part)
SMILES	AID504770	Ba CapD inh
O=C(CCc1ccc(S(=O)(=O)N2CCCCCC2)cc1)Nc1ccnn1Cc1cccs1	0.1	nt
NC(N)=NCCN1CCOCC1	0.45	-0.17
Cc1c(C(=O)O)cc(-c2ccccc2)n1Cc1ccccc1	1.35	0.23
O=C1C2C3c4ccccc4C(c4ccccc43)C2C(=O)N1c1ccccc1[N+](=O)[O-] (centres undefined)	nt	0.135
COC(=O)c1sccc1NC(=O)c1cn(C(=O)Nc2ccccc2)nc1C	nt	0.15
CN(CC(=O)NC(c1ccccc1)c1ccccc1)S(=O)(=O)c1ccc2c(c1)c(=O)n(C)c(=O)n2C	0.95	0.835
O=C(NCCc1ccccc1)c1csc2c1CCCCC2	-0.7	0.095
COC(=O)C1=C(N)N(c2ccc(S(N)(=O)=O)cc2)C2=C(C(=O)CC(C)(C)C2)C1c1cccc([N+](=O)[O-])c1 (centres undefined)	nt	0.09
CCOc1cc(/C=N/NC(=O)C2C(c3ccccc3)C(C(=O)N3CCOCC3)C2c2ccccc2)ccc1O (centres undefined)	nt	0.135
Nc1cc(=O)[nH]n1C1CCCCC1	1.05	-0.81
CCOC(=O)N/N=C/c1ccc(OC)c(CN2CCOCC2)c1	1.05	-0.035
COC(=O)c1ccc(C(=O)Nc2nc3ccc(C)cc3s2)cc1	-0.15	1.08
Clc1ccc(CCN2COc3ccc(Cl)cc3C2)cc1	-0.6	0.165
C=CCN1C(=O)S/C(=C/c2ccc(C(=O)O)cc2)C1=O	0.3	-2.67
C#CC(CC)(CC)NC(=O)c1c(C)noc1C	2.25	-0.21
CC[n+]1c(C)n(-c2ccccc2)c2ccc(N)cc21	-0.2	5.07
O=C1/C(=C/c2ccco2)N=C(c2ccccc2)N1/N=C/c1ccc(F)cc1	1.25	-0.195
COC(=O)c1cccc2c1C(=O)c1ccccc1-2	-0.15	-0.67
CCOc1nc(-c2ccccc2)ccc1-c1noc(-c2ccco2)n1	0.6	2.88
CC(C)OC(=O)c1cccc2c1-c1ccccc1C2=O	1.9	0.855
Cc1cccc(NC2=NC(=S)N(c3cccc(C)c3)C23CCCC3)c1	nt	-0.4
CCNC(=O)Cn1c(=O)c2c(ncn2Cc2ccccc2)n(Cc2ccccc2)c1=O	0.25	nt
COn1c(C)c(C)c2c3no[n+]([O-])c3ccc21	2.3	-0.765
COc1ccc(-c2ccc(C#N)c(SCc3ccccn3)n2)cc1	1.6	nt
COc1ccc(Nc2n[nH]c(N)c2C(N)=O)cc1	0	-1
Nc1ccc(Cc2ccc(N)c(N)c2)cc1N	1.2	2.58
Cc1ccc(N2C(=O)C(C)SC23C(=O)Nc2ccccc23)cc1Cl (centres undefined)	nt	-0.59
NC(=S)Cc1c(Cl)sc2ccc(Cl)cc12	-0.7	0.675
CC(C)(C)c1cc2nc(C(F)(F)F)cc(Sc3ccccc3)n2n1	-0.45	0.235
O=C(c1cnn(-c2ccccc2)c1-n1cccc1)N1CCc2ccccc21	-0.6	-0.32
S=C(Nc1ccccc1)N1CCN(Cc2ccccc2)CC1	-0.6	-0.26
O=C(c1ccc2nsnc2c1)N(Cc1ccccn1)Cc1ccccn1	-0.4	-0.045
CCOC(=O)c1oc2ccccc2c1CN1NS(=O)(=O)c2ccccc2C1=O	0.35	nt
O=C(c1ccc(N2CCOCC2)nc1)N1CCSCC1	0.95	1.99
Cc1ccc(S(=O)(=O)NCCN2C(=N)N(c3nc(N(C)C)nc(N(C)C)n3)CC2=O)cc1	0.35	nt
N=C1SCC(=O)N1/N=C/c1ccccc1	0.05	-0.365
N/C(=N\c1nc2ccccc2o1)NC(=O)/C=C/c1ccco1	0	nt
c1ccc(CSc2nc3ccccc3n3cnnc23)cc1	1.6	25.3
COc1cc(N)c(Cl)cc1C(=O)OCC(=O)N(C)C1CCCCC1	0.15	nt
Cn1c(=O)c(C(=O)NCc2cccnc2)cc2cccnc21	1.65	nt
O=C(O)c1ccc(-n2ccc(C(F)(F)F)n2)cc1	0.05	0.355
Cc1ccc(Nc2nc(CSc3nnc(C)n3Cc3ccccc3)cs2)cc1	-0.2	nt
C/C(=N\OCc1nc2c3c(-c4ccccc4)c(-c4ccccc4)oc3ncn2n1)c1ccc(C)cc1	nt	0.135
CC(C)N1C(=O)S/C(=C\c2ccc(-c3cccc(C(F)(F)F)c3)o2)C1=O	0.4	0.045
CC(C)CN1C(=O)c2ccc(C(=O)Nc3ccc(OCC(=O)O)cc3)cc2C1=O	1.05	-0.625
Cc1ccc2[nH]c(=O)c(NCN3CCCCC3)c(-c3ccccc3)c2c1	-0.85	nt
COc1ccc(NC(=O)c2cc3nc(-c4ccc5c(c4)OCO5)cc(C(F)(F)F)n3n2)c(OC)c1	nt	0.13
CCCC1=NN(c2ccc(S(N)(=O)=O)cc2)C(=O)C1	nt	-0.3
Cc1ccc(NC(=O)N2CCC(c3nc4ccccc4s3)CC2)cc1	nt	0.175
COC(=O)C12CC3CC(CC(NC(C)=O)(C3)C1)C2	0.5	-0.1

Four entries from above in another layout:
> Cc1ccc(Nc2nc(CSc3nnc(C)n3Cc3ccccc3)cs2)cc1
  AID504770: -0.2
  Ba CapD inh: nt
> C/C(=N\OCc1nc2c3c(-c4ccccc4)c(-c4ccccc4)oc3ncn2n1)c1ccc(C)cc1
  AID504770: nt
  Ba CapD inh: 0.135
> CC(C)N1C(=O)S/C(=C\c2ccc(-c3cccc(C(F)(F)F)c3)o2)C1=O
  AID504770: 0.4
  Ba CapD inh: 0.045
> CC(C)CN1C(=O)c2ccc(C(=O)Nc3ccc(OCC(=O)O)cc3)cc2C1=O
  AID504770: 1.05
  Ba CapD inh: -0.625

The list continues:
SMILES	AID504770	Ba CapD inh
CC1(C)CC(=O)C(C(C2=C(O)CC(C)(C)CC2=O)c2ccc(Br)cc2)C(=O)C1 (centres undefined)	nt	-0.265
C/C(=N\N1C(=O)CN(Cc2ccccc2)C1c1ccco1)c1ccc(Cl)cc1 (centres undefined)	1.5	-0.145
CC(=O)Nc1nnc(SCC(=O)N2CCCC2)s1	-0.6	nt
C[N+]1=C(/C=C/Nc2ccccc2)SCC1	-0.55	nt
NS(=O)(=O)c1ccc(NC(=O)C2=COCCO2)cc1	0	nt
COc1ccccc1-c1nnc(SCC(=O)NC2CCCCC2)o1	0.45	-0.345
N/C(Cc1ccc(Cl)cc1Cl)=N\OC(=O)c1ccc(Br)o1	-0.95	-0.27
Cc1ccc(C)c(S(=O)(=O)Nc2ccc3oc4c(c3c2)CC(C(C)(C)C)CC4)c1 (centres undefined)	0.2	-0.62
CCc1ccc(NC(=O)CC(C(=O)O)N2CCCCC2)cc1 (centres undefined)	0.45	nt
COC(=O)Nc1ccc(SC(F)(F)F)cc1	-1.15	-0.14
Cc1ccc(C(=O)COC(=O)CSc2nc3ccccc3s2)c(C)c1	nt	-0.7
CCCC(Nc1ncnc2ccccc12)C(=O)O (centres undefined)	-0.7	0.215
CCOC(=O)c1sc2nc3c(c(-c4ccc(Cl)cc4)c2c1N)CCC3	nt	0.625

From PubChem
